Sa growth 42C = S. aureus growth inhibition. 170,000 tested, 0.53% active. relative growth, % (test concentration not listed). AID 720641. S. aureus RN4220 growth, OD600, 20 h, 42 °C; stronger effect = lower value;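 active means growth at 42 °C up to 50% and 20 or more points under that at 30 °C, or under 10% at both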;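 further: 300 nL library stock went into each well; scaled to the means of positive and negative controls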
GIV-Gai inh = GIV-Galpha-i interaction inhibition; Galpha-i3/FITC-GIV peptide fluorescence polarization, 90 min; stronger effect = lower value; scaled: aluminum fluoride 0%, vehicle 100%; percent of control (FP), % (concentration not given with the values); 210,000 tested, 0.42% active; AID 1224905;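 active means replicate mean at 85% of control or lower, very high polarization wells dropped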;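 further: wells of about 15 µL received 100 nL stock; the first replicate is given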
Target sequence (P08753 whole entry, looked up): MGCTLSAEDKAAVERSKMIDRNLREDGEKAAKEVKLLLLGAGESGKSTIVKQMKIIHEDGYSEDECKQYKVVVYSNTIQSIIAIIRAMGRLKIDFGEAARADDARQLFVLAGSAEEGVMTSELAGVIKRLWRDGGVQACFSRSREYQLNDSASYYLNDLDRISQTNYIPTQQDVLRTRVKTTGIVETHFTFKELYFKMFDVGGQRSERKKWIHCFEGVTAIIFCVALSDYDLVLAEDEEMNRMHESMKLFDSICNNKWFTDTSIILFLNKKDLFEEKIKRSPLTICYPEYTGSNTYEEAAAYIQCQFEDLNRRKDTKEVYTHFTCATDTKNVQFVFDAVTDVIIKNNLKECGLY
HCMV UL50-53 inh = disrupts HCMV UL50-UL53 complex binding. HTRF UL50-UL53 interaction, normalized percent inhibition. inhibition, % (no concentration beside the values). 190,000 tested, 0.15% active. AID 1918969;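 active means both replicates at 50% or more, plus weaker picks with an unusually low signal ratio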;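 further: stock transfer was 100 nL into about 20 µL; 0% = negative control wells and 100% = wells with untagged competitor protein; inactives centre near -12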
Sa growth 42C second temp = second read-out of Sa growth 42C, no call of its own (marks repeat the call); relative growth, %; measured here: growth at 30 °C;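 optical density after 20 h as mean of two plates; 100% = untreated growth and lower means inhibition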
* = called active by the depositor; nt = no result given; & = joins results of further samples.

SMILES	Sa growth 42C	Sa growth 42C second temp	GIV-Gai inh	HCMV UL50-53 inh
COc1ccc(-c2cc(C(F)(F)F)nc(S(=O)(=O)CCCC(=O)Nc3ccccc3C(F)(F)F)n2)cc1OC	109	94	105	-25
CCC(C)n1c(SCC(=O)OC)nnc1-c1cccc(S(=O)(=O)N2CCOCC2)c1 (stereo not given)	99	90	nt	-3
CCOC(=O)N1CCN(c2nc3c(c(=O)n(C)c(=O)n3C)n2CCSc2nnc(C)s2)CC1	79	80	100	-23
Cc1nc2cc(NC(=O)NC3=NCCS3)ccc2n1C	106	88	104	-14
Nc1nc2sc3c(c2cc1C(=O)N1CCOCC1)CCCC3	110	74	98	-16
CCn1c(SCC(=O)NCC2CCCO2)nc2c(c1=O)SCC2 (stereo not given)	nt	nt	105	-2
COC(=O)c1ccc(NC(=S)Nc2cc(C)[nH]n2)cc1	131	81	103	-14
CC(C)NC(=O)Nc1cc2c(cc1Oc1ccccc1)n(C)c(=O)n2C	nt	nt	105	-33
NC(=O)c1ccc(C(F)(F)F)[nH]c1=O	112	88	101&97	-9
CC(=O)N1c2ccc(S(=O)(=O)NCCC(=O)Nc3ccc(C)cc3Br)cc2CC1C (stereo not given)	111	87	103	nt
CC1CCN(c2nnc(NC(=O)Cn3c(=O)oc4ccccc43)s2)CC1	96	69	97	-20
Cc1cccc(C)c1NC(=O)c1nc(S(C)(=O)=O)ncc1N(Cc1ccc(F)cc1)Cc1ccco1	101	101	97	-3
N#Cc1cccc(NC(=O)CCCc2ccccc2)c1	103	85	nt	-8
O=C(Cn1c(=O)c2cccn2c2ccc(F)cc21)NCCCN1CCC(N2CCCCC2)CC1	nt	nt	101	-15
O=C(C1CCN(c2ncnc3c2sc2cccc(F)c23)CC1)N1CCC(Cc2ccccc2)CC1	nt	nt	97	-15

As entered above.
Result of CCC(C)n1c(SCC(=O)OC)nnc1-c1cccc(S(=O)(=O)N2CCOCC2)c1 (stereo not given) in HCMV UL50-53 inh: -3
Result of CC(=O)N1c2ccc(S(=O)(=O)NCCC(=O)Nc3ccc(C)cc3Br)cc2CC1C (stereo not given) in Sa growth 42C: 111
Result of O=C(Cn1c(=O)c2cccn2c2ccc(F)cc21)NCCCN1CCC(N2CCCCC2)CC1 in HCMV UL50-53 inh: -15
Result of Cc1nc2cc(NC(=O)NC3=NCCS3)ccc2n1C in Sa growth 42C: 106
Result of NC(=O)c1ccc(C(F)(F)F)[nH]c1=O in HCMV UL50-53 inh: -9
Result of O=C(C1CCN(c2ncnc3c2sc2cccc(F)c23)CC1)N1CCC(Cc2ccccc2)CC1 in HCMV UL50-53 inh: -15
Result of CCn1c(SCC(=O)NCC2CCCO2)nc2c(c1=O)SCC2 (stereo not given) in GIV-Gai inh: 105

The list continues:
SMILES	Sa growth 42C	Sa growth 42C second temp	GIV-Gai inh	HCMV UL50-53 inh
COc1ccc(NC(=O)C2CCN(C(=O)c3ccc(-c4noc(C)n4)cc3)CC2)cc1	nt	nt	103	-20
CCOC(=O)c1sc(N(Cc2ccccc2)C(=O)CSc2nnc(-c3ccco3)n2C)nc1C	81	92	nt	-21
Cc1cc(Nc2cccc(Cl)c2)nc2ccc(NC(=O)Cc3ccc(Cl)cc3)cc12	111	93	101	nt
CC(C)CNC(=O)N1CCC2(CC1)NC(=O)c1ccccc1O2	94	81	101	-35
Cc1nc(C)c(CC(=O)N/N=C/c2ccc(F)cc2)c(=O)[nH]1	85	80	106	0
COc1ccc(CNC(=O)c2cn(-c3cccc(OC)c3)c(=O)c3ccccc23)cc1	106	90	102	nt
O=C(Nc1ccccc1)c1ccc(Cl)c(S(=O)(=O)Nc2ccccc2)c1	107	76	103	-18
Cc1c(C(=O)NCc2ccccc2)oc2ccc(S(=O)(=O)N3CCCC3)cc12	106	88	103	nt
O=C(c1ccc2c(c1)N(Cc1ccccc1Cl)C(=O)c1ccccc1S2)N1CCCC1	76	64	105	nt
CC(=O)Oc1ccc(N2C(=O)C3ON(c4ccccc4)C(c4ccc(F)cc4)C3C2=O)cc1 (stereo not given)	97	94	97	-4
COc1ccccc1N1CCN(c2nc3ccc(C)cc3nc2-n2nc(C)cc2C)CC1	100	84	101	-4
Cc1ccc2c(COC(=O)c3ccccc3NCc3ccco3)cc(=O)oc2c1C	108	92	nt	-10
CNc1nsc(C(=O)c2ccc(F)cc2)c1N	92	77	101	-72
Cn1ncc2c(N3CCCC3)nc(N3CCC(N4CCCCC4)CC3)nc21	nt	nt	100	-8
CC(=O)N1CCc2c(sc3c2c(=O)n(Cc2ccccc2)c(=O)n3Cc2ccccc2F)C1	98	85	96&97	-10&-6
Cn1nnnc1SCC(=O)NC(C)(C)C	94	95	nt	0
CCN(CC)CCNC(=O)c1ccc2c(c1)sc1nc(-c3ccc(F)cc3)cn12	118	52	106	nt
Cc1cc(C)cc(NC(=O)Cn2cc(C(=O)c3ccccc3)c(=O)c3ccc(C)nc32)c1	92	80	103	nt
CC(C)(C)C(=O)OCc1noc(-c2ccc(Cl)c(Cl)c2)n1	126	96	106	-3
O=C(O)c1ccc(-c2nnc(-c3ccccc3Cl)o2)cc1	81	88	97	nt
O=C1CC(c2ccccc2Br)C2=C(CCCC2=O)N1 (stereo not given)	95	86	105	0
O=C(Nc1ccc(-n2cnnn2)cc1)c1ccccc1C(F)(F)F	99	92	nt	-17
CC(C)(C)NC(=O)CS(=O)(=O)c1cn(CC(=O)N2CCCCC2)c2ccccc12	87	79	105	-45
O=C(NCCc1ccccc1)c1cc2sccc2n1Cc1ccc(Cl)cc1	104	87	101	nt
CCC(C(=O)NCc1ccc2c(c1)OCO2)N1CCN(Cc2ccc(F)cc2)C(=O)C1=O (stereo not given)	nt	nt	109	-8
COc1cc2[nH]c(=O)c(C(=O)NC(C)c3ccccc3)c(O)c2cc1OC (stereo not given)	97	90	nt	-11
CCOc1ccc(NC(=O)Cn2cc(C(=O)c3ccc(F)cc3)c(=O)c3cc4c(cc32)OCCO4)cc1	111	90	102	-25
O=C(Nc1ccccc1C(F)(F)F)c1noc2c1CCc1ccccc1-2	103	88	103	-22
COC(=O)C1=C(C(=O)OC)SC(=C2C(=S)C(C)(C)N(C(=O)CSc3nc4ccccc4o3)c3ccc(OC)cc32)S1	nt	nt	100	-8
CC1(C)CC(=O)C(C=NCC(O)CO)=C(O)C1 (stereo not given)	102	81	103	-19
COc1cccc(N2CCN(C(=O)c3ccc4nc(N5CCC(C)CC5)sc4c3)CC2)c1	102	87	105	-6
CCOC(=O)c1ccc(Nc2ncnc3c2cnn3-c2cccc(Cl)c2)cc1	120	84	103	nt
CN(C(=O)CN1C(=O)C2CC=CCC2C1=O)C1CCS(=O)(=O)C1 (stereo not given)	86	94	nt	-7
COc1ccc2c(C)c(CCC(=O)NCc3ccc(Cl)cc3)c(=O)oc2c1C	82	92	104	-8
CCN(CC)C(=O)c1ccccc1NC(=O)c1ccccc1	84	107	97	-4
C1=C(CCNc2nc3ccccc3n3cnnc23)CCCC1	99	87	103	-3
CN(C)/C=C/C(=O)c1ccsc1	117	84	99	-27
Cc1ccc2nc(C(F)(F)F)cc(OCCN(C)C)c2c1	108	95	102	-2
N=C(N=C(N)N)N(c1ccccc1)c1ccccc1	114	90	96	-11
CCc1c(C)sc(NC(=O)c2cnn3cccnc23)c1C#N	119	98	102	-3
O=C(NC1CCCC1)c1ccc2c(c1)N(Cc1ccccc1F)C(=O)c1ccccc1S2	115	97	100	nt
CC(C)CNC(=O)c1nc(-c2ccccc2)n(-c2ccccc2)n1	92	94	nt	-15
Cc1ccc(NC(=O)c2nc3ccccc3nc2N2CCCC2)c(C)c1	nt	nt	108	-18
O=C(NCCN1CCCCCC1)c1ccc(CS(=O)(=O)c2ccc(Br)cc2)o1	107	92	99	nt
N#Cc1nn(-c2ccccc2)nc1N1CCCCC1	93	96	99	15

Structures above that contain a furan ring, fused or not:
SMILES	Sa growth 42C	Sa growth 42C second temp	GIV-Gai inh	HCMV UL50-53 inh
Cc1cccc(C)c1NC(=O)c1nc(S(C)(=O)=O)ncc1N(Cc1ccc(F)cc1)Cc1ccco1	101	101	97	-3
CCOC(=O)c1sc(N(Cc2ccccc2)C(=O)CSc2nnc(-c3ccco3)n2C)nc1C	81	92	nt	-21
Cc1c(C(=O)NCc2ccccc2)oc2ccc(S(=O)(=O)N3CCCC3)cc12	106	88	103	nt
Cc1ccc2c(COC(=O)c3ccccc3NCc3ccco3)cc(=O)oc2c1C	108	92	nt	-10
O=C(NCCN1CCCCCC1)c1ccc(CS(=O)(=O)c2ccc(Br)cc2)o1	107	92	99	nt

(further entries)
SMILES	Sa growth 42C	Sa growth 42C second temp	GIV-Gai inh	HCMV UL50-53 inh
COc1ccc(NC(=O)c2ccc(NC(=O)CCS(=O)(=O)c3cccs3)cc2)cc1Cl	104	87	110	-38
O=C(Nc1ccccc1)C1CC(=O)N(Cc2ccc3c(c2)OCO3)C(=Nc2ccccc2)S1 (stereo not given)	nt	nt	104	-18
Cc1ccc(CNC(=O)C(C)n2c(=O)cc(C(F)(F)F)c3c(C)nn(C)c32)cc1 (stereo not given)	84	99	101	nt
CCN(CC)C(=O)N1CC(C)CC(C)C1 (stereo not given)	103	108	103	-28
Cc1ccc(OCc2cc(=O)n3cc(C)sc3n2)c(NC(=O)c2ccco2)c1	87	69	99	nt
CC(C)CCOc1ccccc1C(N)=O	81	112	nt	-6
CCc1ccc(NC(=O)CSc2nc(-c3ccc(C)cc3)nc3c2Cc2c(CO)cnc(C)c2O3)cc1	90	107	108	nt
CSc1cccc(Nc2nc3c(S(=O)(=O)c4ccccc4)nnn3c3ccc(Cl)cc23)c1	84	93	98	-7
CC(Nc1ncnc2c1cnn2C)C1CC2CCC1C2 (stereo not given)	99	78	101	-20
Cc1ccc(Cn2c(=O)n(-c3cc(C)cc(C)c3)c(=O)c3oc4ccccc4c32)cc1	92	92	102	nt
CN(C(=O)CN1CCN(c2ccccc2O)CC1)c1ccccc1	91	90	nt	-14
COc1ccc(CNC2CC(C)(C)NC(C)(C)C2)cc1	102	95	nt	-1
O=C(NCc1ccccc1)NC1(C(=O)N2CCCC2)CCCCC1	97	81	104	-18
O=C(Nc1ccccc1)C1CC(=O)N(CCc2c[nH]c3ccc(Cl)cc23)C1 (stereo not given)	nt	nt	108	1
CN(C)CCN(Cc1ccccc1)Cc1ccsc1	123	88	nt	3
COc1cc2c(cc1/C=C1/NC(=O)N(Cc3ccccc3)C1=O)OCO2	102	99	103	-10
COc1cc(Cl)c(C)cc1NC(=S)N(Cc1ccc(C)cc1)Cc1ccco1	101	87	99	nt
CC(C)(C)C1=CC(CO)CC(CO)C1 (stereo not given)	97	99	96	-19
O=C1CCCC(=O)C1C1c2ccccc2Oc2ccc(F)cc21 (stereo not given)	87	72	102	-3
COc1ccc(CNC(=O)C2CSC(c3ccc(OC)cc3)N2C(C)=O)cc1 (stereo not given)	118	85	103	7
C=CCNC(=O)CSc1ccc(F)cc1	nt	nt	104	0
CNC(=O)c1nc(-c2ccccc2)no1	101	96	103	-17
CC(=O)Nc1cc(C(F)(F)F)ccc1N1CCN(c2ccccc2)CC1	93	101	nt	0
Cc1cc(C(=O)CSc2nccn2Cc2ccccc2)c(C)n1-c1ncn[nH]1	127	91	nt	-31
COc1ccc(-c2cc(=NCCc3ccccc3)c3cc(C)ccc3o2)cc1	14	18	105	nt
O=C(COC(=O)C1CCC1)c1ccccc1	96	86	nt	-23
CCCCC(=O)Nc1ccccc1-c1nc(-c2cccc(C)c2)no1	nt	nt	104	-41
CCC1COC(c2cccn2Cc2ccccc2Cl)=N1 (stereo not given)	108	83	102	nt
Cc1cccn2c(=O)c(/C=C3\SC(=S)N(C)C3=O)c(N3CCCC3)nc12	102	63	-36*	nt
CCN1CCN(c2cc(C)c3cc(NC(=O)CC4CCCCC4)ccc3n2)CC1	104	93	97	nt
O=C(NCc1cccc(Cl)c1)C1CCCN(c2ncnc3onc(-c4ccc(F)cc4)c23)C1 (stereo not given)	136	103	111	nt
CCCn1cc(C(=O)c2ccc(C)cc2)c(=O)c2ccc(C)nc21	76	91	124	-10
COc1ccc(NC(=O)c2sc3nc(N4CCCC4)c4c(c3c2N)CCCC4)cc1	nt	nt	108	-21
C/C(N)=C(/C#N)C(=O)CSc1nc2ccccc2n1CC(C)C	113	90	nt	-17
O=C(NCc1ccco1)c1cccc(N2CCCC2=O)c1	94	82	105	nt
CCN(CC)C(=O)c1sc2c(c1C)c(=O)n(Cc1ccccc1)c(=O)n2Cc1ccccc1C	101	75	103	nt
CCOC(=O)c1c(/N=C/C2C(=O)c3ccccc3C2=O)sc(C)c1C	122	84	106	nt
O=C(/C=N/O)Nc1cccc(C(F)(F)F)c1	81	87	nt	0
COc1ccc(Cn2c(N)c(S(=O)(=O)c3ccccc3)c3nc(C#N)c(C#N)nc32)cc1	94	101	nt	-3
CC(C)Nc1nc2c(-c3cccc(Br)c3)nnn2c2ccccc12	125	78	105	-30
COC(=O)C1=C(C)NC2=C(C(=O)CC(C)(C)C2)C1c1ccccc1Cl (stereo not given)	99	88	106	-4
CCOC(=O)c1sc(N)nc1C(F)(F)F	93	80	95	30
N#C/C(=C\c1ccccc1)C(=O)NN1CCOCC1	95	91	nt	1
Cc1oc2c(c1C(=O)NC(C)(C)C)C(=O)c1ccccc1C2=O	5.7*	6.0*	108	-38
Cc1nnc(-c2ccccc2)c(=O)n1/N=C/c1ccc2c(c1)OCO2	104	90	nt	-56
Cc1c(C(=O)Nc2ccc(S(N)(=O)=O)cc2)nnn1-c1ccc(Cl)cc1	nt	nt	100	-19
Cc1cc(P(=N)(N2CCOCC2)N2CCOCC2)c(C)n1-c1ccc(I)cc1	95	96	nt	-25
